eIF4H FP inh = inhibitors of RNA binding by human eIF4H. Q15056. eIF4H fluorescence polarization binding assay. inhibition, % at 35 µM. hit rate 0.94% among 290,000;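 active means 50% or more with normal probe brightness, or confirmed in later tests; inconclusive means above 50% with abnormal brightness, or retests that disagree; inactive means below 50% or failed in later tests; about a fifth of its hits are not listed in these tables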;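 further: calls also rest on retests at 20 µM and on dose response follow-up; 0% = protein and probe with vehicle and 100% = probe without protein; strong numbers were not always called active; many hits fall short of the cut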
Env fusion inh = HIV envelope-mediated fusion inhibition; HeLa-JRFL Env/CEM21 cell fusion, luciferase; hit rate 1.1% among 360,000; inhibition, % at 12.3 µM;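 active means mean replicate inhibition score of at least 50 and every replicate individually at or above 50; inconclusive means only one of the two criteria met; inactive means mean below 50 and not all replicates reaching 50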;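 further: 0% = plate neutral controls and 100% = maraviroc near 300 nM; one replicate is shown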
Yeast UUG start = yeast start codon fidelity modulation; activity score, % at 18.7 µM; S. cerevisiae UUG-firefly luciferase reporter, luminescence/redox ratio; AID 602363; hit rate 0.13% among 350,000;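 active means replicate mean at a twofold rise or more, about +100% in these data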;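 further: firefly luciferase made from a UUG start codon reports start codon fidelity; reporter light over untreated wells divided by growth signal over untreated wells; some hits fall short of that in this replicate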
Rce1 inhib = blocks yeast Ras-converting enzyme | hit rate 0.27% among 290,000 | AID 2563 | calls only | yeast membranes, quenched prenylated peptide cleavage fluorescence | Q03530;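 active means fall in fluorescence gain of 50% or more versus controls, with final raw signal at or below 3038400; inconclusive means same 50% fall but final raw signal above 3038400; inactive means fall in fluorescence gain under 50%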;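 further: plate controls were neutral control wells for no effect and wells lacking membranes for full effect; tested at 10 µM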
Target sequence (Q03530 whole entry, looked up): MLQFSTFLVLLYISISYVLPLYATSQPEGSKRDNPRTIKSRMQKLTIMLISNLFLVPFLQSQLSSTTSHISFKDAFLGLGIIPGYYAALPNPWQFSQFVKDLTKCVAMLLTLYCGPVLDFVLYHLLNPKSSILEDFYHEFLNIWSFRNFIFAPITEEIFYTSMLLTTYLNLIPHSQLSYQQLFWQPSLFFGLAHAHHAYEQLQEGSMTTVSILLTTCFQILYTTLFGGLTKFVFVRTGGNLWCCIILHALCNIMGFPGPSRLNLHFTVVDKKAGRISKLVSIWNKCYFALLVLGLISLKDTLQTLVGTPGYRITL
CSC inhib = blocks cancer stem cells. cancer stem cell-like cells viability, luminescence. inhibition, % at 7.5 µM. hit rate 1.1% among 300,000;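 active means mean at 75% or more and at least half the replicates too; inconclusive means mean and replicates disagree; tested in HMLE shEcad cells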;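 further: 0% = median of negative and 100% = median of positive control wells; the first replicate is given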
PABP FP inh = blocks human PABP binding to poly(A) RNA; fluorescence polarization; inhibition, % at 35 µM; hit rate 1% among 290,000;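 active means 50% or more with normal probe brightness, or confirmed in later tests; inconclusive means above 50% with abnormal brightness, or retests that disagree; inactive means below 50% or failed in later tests; about a fifth of its hits are not listed in these tables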;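 further: calls also rest on retests at 20 µM and on dose response follow-up; controls were probe without protein and protein plus probe with vehicle; some compounds called inactive have numbers as strong as hits; many hits fall short of the cut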
MT1-MMP act inh = blocks activation of human MT1-MMP; hit rate 0.061% among 360,000; AID 651647; GFP/RFP ratio change, % at 20 µM; HT1080 RFP-PRO-GFP cells, GFP/RFP ratio fluorescence, overnight; percent of plate control window, DMSO zero; P50281;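 active means GFP/RFP ratio change of at least 30% with cell ATP level not reduced by more than half and red fluorescence within 50% of control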; further: strong numbers were not always called active
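Material – HT1080 RFP-PRO-GFP cells · Control set – DMSO wells and RFP-L50D-GFP cells · Incubation – overnight cell settling, then overnight compound exposure, 37 °C, 5% CO2 · Compound dosing – single-point 20 µM compound, 1% DMSO · Read-out – GFP/RFP fluorescence ratio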
eIF4H FP inh retest = also measured in eIF4H FP inh; calls as there; inhibition, %; compound at 20 µM; confirmation average;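 mean of two retest wells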
PABP FP inh retest = also measured in PABP FP inh; calls as there; inhibition, %; compound at 20 µM; confirmation repeats;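 mean of two retest wells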
MT1-MMP act inh RFP = second read-out of MT1-MMP act inh, no call of its own (marks repeat the call); RFP signal change, %; measured here: RFP expression control read;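 0 = vehicle wells; hits needed this value within 50% of zero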
The depositor's hits bear a star; i = inactive; ? = inconclusive; nt = not tested or not shown.

SMILES	eIF4H FP inh	Env fusion inh	Yeast UUG start	Rce1 inhib	CSC inhib	PABP FP inh	MT1-MMP act inh	MT1-MMP act inh RFP	others
CCN(CC)S(=O)(=O)c1ccc(-c2nnc(SCC(N)=O)n2CC)cc1	0	-12	nt	i	-5	-4	3	7
O=C(CSc1ncccn1)N1CCN(S(=O)(=O)c2ccccc2)CC1	-3	6	-9	i	-17	6	-4	1
O=C(NC(=S)N1CCCCCC1)c1ccc(Cl)cc1Cl	-7	19	nt	i	-3	-5	1	0
CCCOP(=O)(OCCC)C(Nc1cccc(C(F)(F)F)c1)c1ccc(C)cc1 (stereo unspecified)	-3	81*	-4	i	28	-4	-31	-18
Cc1cc(C)c2cc(C(O)c3nnnn3Cc3ccccc3)c(=O)[nH]c2c1 (stereo unspecified)	-1	?	-7	i	-7	-9	-3	2
Cc1cccc(C(O)c2ncc(-c3ccccc3Cl)[nH]2)c1C (stereo unspecified)	nt	27	-7	nt	nt	nt	-2	-6
Cc1ccc(-c2csc(NC(=S)NC(=O)/C=C/c3ccco3)n2)cc1	-4	-250	9	i	71	-2	6	-4
CCN1CCCC1CNCc1cccc(OC)c1OCc1ccccc1 (stereo unspecified)	-11	nt	nt	i	-13	-7	1	5
CC(C)(C)OC(=O)NCCCC[C@H](NC(=O)c1nc[nH]c1C(=O)NC(c1ccccc1)c1ccccc1)C(=O)OC(C)(C)C	16	-59	-2	i	35	-11	-20	-15
O=C(COC(=O)c1ccc(Br)cc1)NCCC1=CCCCC1	-5	-16	-21	i	-11	38	0	7
Cc1ccc(N/N=C/c2ccncc2)cc1	0	-38	-22	i	79*	-3	-1	2
CN1CCC(N(C)S(=O)(=O)c2ccc(NC(=O)COc3ccc([N+](=O)[O-])cc3)cc2)CC1	nt	-4	-7	i	-4	nt	-4	2
O=C(Nc1ccc(Cl)cc1)Nc1nc(-c2ccccc2)cs1	-8	11	nt	i	-6	18	2	-6
Cc1ccc(S(=O)(=O)N2CCCCC2)cc1NC(=O)CCNC(=O)c1ccccc1Cl	nt	14	-18	nt	nt	nt	2	1
CC1(C)SC(=S)N(NC(=O)Nc2ccccc2)C1N(O)C(=O)Nc1cccc2ccccc12 (stereo unspecified)	-8	12	nt	i	7	-3	1	4
CCC(=O)N1CCc2cc(S(=O)(=O)NCCC(=O)N3CCN(c4ccccc4)CC3)ccc21	-7	6	-2	i	8	16	1	-5
COc1cc(CNn2nnnc2N)cc(Br)c1OCC(=O)NC(C)(C)C	-1	8	-18	i	0	0	1	-5
OCc1cccc(Nc2ncnc3sc4c(c23)CCCCC4)c1	-11	-2	nt	i	20	-1	3	4
CCN(C(=O)COC(=O)CN(C)S(=O)(=O)c1ccc(NC(C)=O)cc1)C1CCS(=O)(=O)C1 (stereo unspecified)	-11	-38	-13	i	3	-5	0	2
COc1cc([N+](=O)[O-])ccc1NC(=O)CSc1nnc(C)c(C)n1	-6	2	-12	i	-1	-4	7	-6
CC1(C)CC(=O)c2sc(NC(=O)c3ccccc3)nc2C1	-3	nt	nt	i	-6	-2	nt	nt
COc1cc(/C=C2/NC(=O)N(Cc3ccccc3F)C2=O)cc(OC)c1O	51	-9	nt	nt	-7	-2	-13	-2	eIF4H FP inh retest=-6;PABP FP inh retest=3
O=S1(=O)N=C(N2CCN(c3ccc(F)cc3)CC2)c2ccccc21	0	-98	-12	i	1	-6	1	0
CN(CC(=O)OCC(=O)NCC(F)(F)F)S(=O)(=O)c1ccc(Cl)cc1	13	13	-7	i	-1	-7	5	5
CCN1CCN(C(=O)N[C@@H](C(=O)N[C@@H]2C(=O)N3[C@@H]2SC(C)(C)[C@@H]3C(=O)O)c2ccccc2)C(=O)C1=O	2	nt	nt	i	2	-6	nt	nt

Other entries follow:
SMILES	eIF4H FP inh	Env fusion inh	Yeast UUG start	Rce1 inhib	CSC inhib	PABP FP inh	MT1-MMP act inh	MT1-MMP act inh RFP	others
COc1cc(CNc2ncnc3c2ncn3[C@H]2CN(Cc3ccc(F)cc3)C[C@@H](CO)O2)cc(OC)c1OC	nt	24	-5	nt	nt	nt	6	3
CC1CCN(CCCNC(=O)c2cc3sccc3n2C)CC1	2	nt	-12	i	3	3	3	4
O=C(C[C@@H]1C/C=C\C[C@@H](Cc2ccc(F)cc2)C(=O)OC[C@@H]2CCCN2C1=O)N[C@H](CO)Cc1ccccc1	nt	-23	12	nt	nt	nt	3	2
CS(=O)(=O)N(CC(=O)N1CCCCCC1)c1ccccc1	-2	nt	-25	i	1	-5	-1	2
Cc1ccccc1NS(=O)(=O)c1ccc(NC(=O)N2CCCCC2)cc1	11	1	9	i	-3	-2	5	-5
CN(C)CCCNC(=O)c1cc2sc3ccccc3c2s1	0	-3	nt	i	25	11	-1	-4
CCOC(=O)N1CCN(C(=O)c2ccc(Cn3c(=S)[nH]c4cc5c(cc4c3=O)OCO5)cc2)CC1	-4	?	-29	nt	nt	-6	4	-10
NC(=O)c1ccc(N2CCCCC2)c(N2C(=O)C3C4C=CC(C4)C3C2=O)c1 (stereo unspecified)	5	nt	-16	i	nt	1	1	-2
O=C(Nc1nc2ccccc2[nH]1)c1cccc(Br)c1	10	-121	-18	i	16	10	6	-5
CC(=O)Nc1c(C(=O)O)oc2ccc(Cl)cc12	-2	-10	-22	i	-14	12	-1	3
O=C(c1ccc(N2CCOCC2)c([N+](=O)[O-])c1)N1CCCCC1	-4	nt	-5	i	-1	0	3	-2
COc1ccc2c(=O)cc(C(F)(F)C(F)(F)F)oc2c1	0	nt	-16	i	nt	8	5	5
COc1ccc(C(C(C(=O)c2cccs2)N2CCOCC2)N2CCOCC2)cc1OC (stereo unspecified)	-2	-26	2	i	-8	6	-1	1
CC1(C(=O)NS(=O)(=O)c2cccs2)CCN1C(=O)C1CCCCC1 (stereo unspecified)	nt	-16	-5	nt	nt	nt	0	9
COc1cc2c(cc1OC)CN(Cc1nc3ccsc3c(=O)[nH]1)CC2	20	18	-25	i	-4	11	0	13
Cc1cccc(NCc2ccccc2O)c1	-4	nt	-14	i	-3	4	0	-1
CN1CCN(CCCNCc2cn(CCC#N)c3ccccc23)CC1	34	-3	5	i	-6	?	7	9
CC[C@]12c3[nH]c4cc(CCC(=O)N(C)C)ccc4c3CCN1C(=O)[C@@H](CC(=O)NC(C)(C)C)C[C@@H]2C(=O)N1CCN(C(=O)c2ccco2)CC1	nt	2	-5	nt	nt	nt	8	8
COc1ccc(C(C(=O)NC2CCCCC2)N(C(=O)CCl)c2ccc(Cl)cc2)cc1 (stereo unspecified)	3	nt	0	i	10	6	-29	-34
CCNS(=O)(=O)c1ccc(CCC(=O)O)cc1	-7	5	-1	i	-12	-15	0	1
Cc1cnc(NC(=O)CN(C)S(=O)(=O)c2ccc(Cl)cc2)s1	-6	-11	-11	i	4	-8	-6	-6
CSc1ncccc1C(=O)Nc1nc2ccc(Oc3ccccc3)cc2s1	-3	-27	nt	i	78*	-2	-7	-8
Cc1nn(CCc2nn[nH]n2)c2nc(-c3ccc(C4CCCCC4)cc3)cc(C(F)(F)F)c12	56	23	nt	i	110*	5	13	-15	eIF4H FP inh retest=6;PABP FP inh retest=8
CN(C)C(=O)CCC(=O)N1CCCCC1C(=O)Nc1ccc(Oc2ccccc2F)cc1 (stereo unspecified)	-7	7	31	i	-7	-1	nt	nt
OCCCNc1ncnc2oc(-c3ccccc3)c(-c3ccccc3)c12	2	-4	-12	i	13	4	-7	-4

Following part:
SMILES	eIF4H FP inh	Env fusion inh	Yeast UUG start	Rce1 inhib	CSC inhib	PABP FP inh	MT1-MMP act inh	MT1-MMP act inh RFP	others
N#Cc1nc(COc2ccccc2)oc1N1CCC(Cc2ccccc2)CC1	-4	nt	-17	i	25	-7	-2	-2
C#CCSc1nnc(C)c(C)n1	nt	7	-10	i	4	nt	2	3
COc1ccc(C(=O)Nc2ccc(S(=O)(=O)N(C)c3ccccc3)cc2)cc1	nt	3	nt	i	5	nt	-7	-30
Cc1cccc(N2CCN(C(=O)C3CCN(c4nnc(-n5cccc5)s4)CC3)CC2C)c1 (stereo unspecified)	-3	-4	1	i	17	1	4	-5
COc1ccc(CNC(=O)Nc2ccc3c(c2)c(=O)n(C)n3Cc2cc(C)cc(C)c2)cc1	nt	3	-26	nt	nt	nt	-1	-7
Cc1ccc(S(=O)(=O)N2CCCC(C(=O)NCc3cccnc3)C2)cc1Cl (stereo unspecified)	0	nt	-16	nt	-17	0	1	2
Cc1onc(-c2ccccc2Cl)c1C(=O)OCC(=O)Nc1cccc(S(=O)(=O)N2CCOCC2)c1	-4	27	-3	i	-5	6	2	-10
Cc1ccc(C2=NN=C(NC(=O)C(F)(F)F)SC2)cc1	10	-24	-32	nt	nt	-6	-2	-4
CC(=O)Nc1cc(-c2ccc(C(=O)N3CCOCC3)cc2)cn2c(-c3ccc(F)c(Cl)c3)cnc12	nt	1	-16	nt	nt	nt	-5	-1
NS(=O)(=O)c1ccc(CCNC(=O)CCNC(=O)c2ccco2)cc1	-5	-3	-8	i	-3	-3	-3	-1
Cc1ccc2c(SCC(=O)NCc3ccco3)nc(-c3ccc(F)cc3)nc2c1	-6	31	-9	i	1	0	4	4
Brc1ccccc1CN1CCC(Cc2ccccc2)CC1	-11	13	-2	i	36	1	-2	5
CCC1CN(C(=O)Nc2cccc(C)c2)c2cc(C)ccc2O1 (stereo unspecified)	-11	16	nt	i	2	5	-4	-4
Cc1[nH]c(=O)[nH]c(=O)c1S(=O)(=O)N1c2ccc(F)cc2CCC1C (stereo unspecified)	2	-25	-4	i	-2	7	1	-1
CCCC(CCC(=O)Nc1nccs1)C(=O)O (stereo unspecified)	-2	-5	nt	i	-9	-8	-1	2
O=C(O)c1cccc(S(=O)(=O)Nc2ccc3c(c2)OCO3)c1	7	-72	-14	nt	-3	12	-1	9
CC(=O)N1CCCC1C(=O)O (stereo unspecified)	nt	39	-13	nt	nt	nt	4	5
CCOc1cnc(-c2c(-c3c(F)cccc3Cl)noc2C)o1	-16	-10	-12	i	-8	1	-4	-1
CCOC(=O)COc1cc(Br)c(C2NC(=O)NC(C)=C2C(C)=O)cc1OCC (stereo unspecified)	-4	-1	-22	i	10	-4	2	8
Cc1ccc(C)c(NC(=O)c2cc3c([nH]c4ccccc43)c(C)n2)c1	-1	nt	-34	i	-25	2	-1	-1
O=c1cc(CO)oc(C(Nc2ccccn2)c2ccsc2)c1O (stereo unspecified)	71*	nt	nt	i	-2	48*	nt	nt	eIF4H FP inh retest=52*;PABP FP inh retest=54*
O=S1(=O)CC=C(CSC(=S)NC2CCS(=O)(=O)C2)C1 (stereo unspecified)	-3	5	nt	i	6	-9	-4	2
COc1cc(C2C(C#N)=C(N)N(N(C)C)C3=C2C(=O)CC(C)(C)C3)cc(OC)c1OC (stereo unspecified)	-6	-6	nt	i	-7	8	1	4
COc1cc(/C=C(\NC(C)=O)C(=O)NC(C)(C)C)ccc1OC(C)=O	10	28	-16	i	-11	2	9	11
Cc1cccc(NS(=O)(=O)c2ccc(C(=O)NCC(c3ccco3)N3CCCCC3)cc2)c1C (stereo unspecified)	nt	?	-5	i	7	nt	1	-17
O=C(Cc1ccccc1[N+](=O)[O-])NC1CC1	-13	-5	nt	i	-5	2	-1	1
COc1ccc(N(C)C(=O)Cc2c(C(=O)O)[nH]c3ccccc23)c(OC)c1	8	17	nt	nt	-8	-5	-5	-1
COc1ccc(CN(C)C(=O)c2cccc(S(=O)(=O)N3CCN(c4ccccc4)CC3)c2)c(OC)c1OC	nt	nt	nt	i	-10	nt	7	-30

Screening results: PubChem, several laboratories
